Screens as filed in PubChem BioAssay.
TRPML1 agonist – human mucolipin-1 channel agonism. actives 0.12% (n = 410,000). TRPML1-expressing cells, Ca2+ dye fluorescence, FDSS; host cell line not named in the record; reference of the full effect not given here. activation, % (test concentration not listed). Q9GZU1; in the data active = activation above about 50%; inconclusive = about 30% to 50%; inactive = below about 30%; further: 0% is about no effect; the text of the record puts the active cut at 80%
Target sequence (Q9GZU1 whole entry, looked up): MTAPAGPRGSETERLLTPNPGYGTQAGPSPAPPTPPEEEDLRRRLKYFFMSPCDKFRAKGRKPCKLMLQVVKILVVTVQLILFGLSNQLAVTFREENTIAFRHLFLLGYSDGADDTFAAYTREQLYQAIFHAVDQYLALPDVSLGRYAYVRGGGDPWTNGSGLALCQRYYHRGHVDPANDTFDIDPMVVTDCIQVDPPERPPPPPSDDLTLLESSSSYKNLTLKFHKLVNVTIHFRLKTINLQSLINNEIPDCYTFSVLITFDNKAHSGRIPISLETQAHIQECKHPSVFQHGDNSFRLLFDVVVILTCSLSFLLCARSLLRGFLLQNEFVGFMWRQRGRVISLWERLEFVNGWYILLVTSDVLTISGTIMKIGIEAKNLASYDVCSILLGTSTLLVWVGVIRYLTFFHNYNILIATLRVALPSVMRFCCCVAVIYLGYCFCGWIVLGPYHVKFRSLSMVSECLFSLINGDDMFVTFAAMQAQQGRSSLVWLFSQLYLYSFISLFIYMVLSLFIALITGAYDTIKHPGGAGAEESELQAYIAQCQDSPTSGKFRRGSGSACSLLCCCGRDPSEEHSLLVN
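In this qHTS format, compounds were pin-transferred onto Ca8-dye-loaded TRPML1-DL cells induced with Tet overnight, and intracellular Ca2+ fluorescence was recorded kinetically for 110 s after a 10 s baseline. A subsequent 4uM final 54-4 (EC80) addition followed by a second 110 s read served as the antagonist phase.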
PINK1 modulator – PINK1 expression modulation; PINK1 immunofluorescence, high-content cytometry, 24 h; Potency, µM (top dose mostly 76.6 µM), without a hit: top-dose activation (PINK1 increase), actives largely listed as activators; actives 0.2% (n = 410,000); active = well fitted activation curve with a large enough effect; inconclusive = small, poorly fitted or top-dose-only effect; inactive = flat fitted curve, though single readings scatter; cell line not stated here;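 further: potency means the concentration at half of the fitted maximal effect; % of control where 0% means no effect; nearly all actives have a fitted effect of over 65% in size; a mitochondrial uncoupler was the plate control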
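Cells are seeded, rested 12 hours, then given compound at five concentrations or DMSO for 24 hours. After fixation, blocking and antibody staining, PINK1 amount and mitochondrial localization are scored; CCCP serves as control.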
* hit, by the source's call; ? = inconclusive. This is a subset (hit frequency here may not be typical).

Results follow in this order: TRPML1 agonist | PINK1 modulator
#1 CC(C)(C)c1ccc(CN(Cc2ccco2)c2cnc(S(C)(=O)=O)nc2C(=O)Nc2ccc(F)cc2)cc1
  1.6 | 0.1%
#2 CC(C)c1ccc(Nc2nc(Nc3ccc(Cl)cc3)nc(N3CCOCC3)n2)cc1
  -0.5 | -0.7%
#3 CCCCN(CC)CCCNC(=O)Cn1ncc2c3ccccc3n(C)c2c1=O
  3.8 | 1.0%
#4 CCCN1CCN(CCCNC(=O)c2c(C)nn(-c3ccc(F)cc3)c2-n2cccc2)CC1
  3.7 | 3.2%
#5 CCOc1ccc(CCNC(=O)CCc2c(C)nc3c(c(C)nn3-c3ccccc3)c2C)cc1OCC
  0.8 | 3.7%
#6 Cc1c(Cl)cccc1NC(=O)CCS(=O)(=O)c1ccc2c(c1)oc(=O)n2C
  -0.8 | 1.1%
#7 Cc1cccc(N2CCN(C(=O)CCNS(=O)(=O)c3ccc4c(c3)CCN4C(=O)C3CC3)CC2)c1C
  2.1 | -5.3%
#8 O=C(CCCCCn1c(=O)c2sccc2n(CC(=O)Nc2ccccc2F)c1=O)NCc1ccc2c(c1)OCO2
  1.0 | 1.1%
#9 Cc1ccccc1-c1nnc(SCC(=O)N2CCCc3ccccc32)o1
  1.6 | -1.2%
#10 COc1ccc(-c2noc(-c3ccc(N4CCN(c5ccc(OC)cc5)CC4)c([N+](=O)[O-])c3)n2)cc1
  -0.8 | 1.1%
#11 Cc1ccc(CNc2ncnc3onc(-c4ccc(F)cc4)c23)cc1
  4.3 | 0.3%
#12 CCOc1ccc(-n2ccnc2SCC(=O)Nc2cccc3ccccc23)cc1
  5.0 | -11%
#13 CCOC(=O)c1ccc(-c2ccc(/C=C(\C#N)C(=O)Nc3ccc(C)cc3OC)o2)cc1
  -0.3 | 1.0%
#14 COc1cc(OC)c(NC(=O)Nc2cccc(OCc3cc(=O)n4ccccc4n3)c2)cc1Cl
  -0.4 | -1.1%
#15 CCC1CN(C(=O)Nc2ccc(C)c(F)c2)c2ccccc2S1 (stereo not drawn)
  0.3 | 1.0%
#16 CC(=O)c1cccc(NC(=O)Nc2c(C)n(C)n(-c3ccccc3)c2=O)c1
  0.5 | -2.2%
#17 COc1cccc(CNC(=O)C(=O)Nc2ccc3nc4n(c(=O)c3c2)CCCCC4)c1
  3.9 | 1.5%
#18 CCOC(=O)c1cc(OC(=O)c2cc(OC)c(OC)c(OC)c2)n(-c2ccccc2)n1
  1.9 | -1.4%
#19 COc1ccc2c(c1)c1c(c(=O)n(-c3cccc(Cl)c3)c(=O)n1CC(=O)N1CCCC1)n2C
  -0.2 | -0.3%
#20 O=C(Nc1nnc(S(=O)(=O)N2CCCc3ccccc32)s1)c1ccccc1
  3.1 | -0.3%
#21 CCOC(=O)C1=C(CN2CCN(c3ccc(OC)cc3)CC2)NC(=O)NC1c1ccc(Cl)cc1 (stereo not drawn)
  -0.3 | 0.5%
#22 CCCCN1CCCc2cc(CN(CCCN3CCOCC3)C(=O)Nc3ccc(OCC)cc3)ccc21
  1.7 | 1.4%
#23 O=S(=O)(c1ccc2c(c1)CCCC2)N1CCN(c2nc(-c3cccs3)nc3ccccc23)CC1
  -0.3 | -0.9%
#24 Cc1ccc(Nc2nc3ccccc3c3nncn23)cc1C
  1.4 | 5.8%
#25 COc1ccc(NC(=O)CSC2=Nc3ccccc3C3=NC(Cc4ccccc4)C(=O)N23)cc1 (stereo not drawn)
  -0.5 | -1.0%
#26 C=CCc1ccccc1OCc1nc2ccccc2n1CC
  1.9 | -0.6%
#27 CC(=O)N1CCC2(CC1)OC(=O)C(C)=C2C(=O)Nc1ccccc1C(F)(F)F
  1.1 | 1.6%
#28 COc1ccc(NC(=O)CCCSc2nc(-c3ccco3)cc(C(F)(F)F)n2)c(OC)c1
  1.1 | 1.7%
#29 COc1ccc(NC(=O)c2oc3ccc(S(=O)(=O)N(C)C4CCCCC4)cc3c2C)cc1Cl
  1.0 | 1.2%
#30 CN(C)c1ccc(C(CNC(=O)c2ccccc2C(F)(F)F)N2CCOCC2)cc1 (stereo not drawn)
  -0.9 | 0.4%
#31 CC(=O)N1CCc2nc3sc(C(=O)c4ccc(F)cc4)c(N)c3c(C(F)(F)F)c2C1
  ? | 3.4%
#32 O=C(CCOc1ccccc1)N(Cc1cccnc1)c1nc2c(Cl)cccc2s1
  -0.2 | 1.8%
#33 COc1ccc(-c2noc(CN(C(=O)c3cc(OC)c(OC)cc3OC)C(C)C)n2)cc1
  0.6 | -0.2%
#34 O=C(CSc1nnc(-c2cccs2)o1)Oc1ccccc1
  -0.7 | -0.3%
#35 COC(=O)c1c(C)sc(-c2c(-c3ccc4c(c3)OCCO4)[nH]c3c2c(=O)[nH]c(=O)n3C)c1O
  2.0 | -0.6%
#36 Cc1ccc(S(=O)(=O)NCCc2nnc3ccc(SCC(=O)Nc4ccc(OC(F)(F)F)cc4)nn23)cc1
  -0.7 | 7.3%
#37 Cc1nc2nc(C(F)(F)F)[nH]n2c(=O)c1Cc1ccccc1
  -0.1 | 0.8%
#38 CCc1ccc(NC(=O)CSc2nc(=O)n(Cc3ccco3)c3c2CCC3)cc1
  1.1 | 0.0%
#39 CCn1c(=O)c2cc(C(=O)Nc3cc(F)ccc3F)sc2c2ccccc21
  -1.1 | 1.8%
#40 COc1ccc(Cl)cc1NC(=O)Cn1ccn(Cc2ccc(C)cc2)c(=O)c1=O
  2.6 | -0.6%
#41 Cc1ccccc1NC(=O)CCC(=O)N1CC(C)Sc2ccccc21 (stereo not drawn)
  3.4 | 1.2%
#42 CCOc1ccccc1NC(=O)C1CCN(S(=O)(=O)c2cccc3nonc23)CC1
  1.6 | 1.4%
#43 CCOc1ccc(-c2cc(C(=O)NC(C)c3ccccc3)c3ccccc3n2)cc1 (stereo not drawn)
  5.8 | 1.1%
#44 CCN(Cc1ccccc1)c1ncnc2c1nnn2C
  -0.5 | 2.3%
#45 COc1ccc(C(=O)Nc2noc3ccccc23)cc1
  -0.5 | -0.1%
#46 COc1ccc(OC)c(CNC(=O)c2cc(S(=O)(=O)N3CCC(C)CC3)cn2C)c1
  2.8 | 0.6%
#47 Cc1ccc(CNC(=O)c2ccc(CN3CC(=O)N4CCCCC4C3=O)cc2)cc1 (stereo not drawn)
  1.3 | 0.6%
#48 Cc1nc(Oc2ccccc2C)c2oc3ccccc3c2n1
  0.6 | 5.2%
#49 COc1ccc(NC(=O)Cn2c(=O)n(Cc3ccccc3)c(=O)c3oc4ccccc4c32)cc1Cl
  1.2 | -0.8%
#50 Cc1ccc(Nc2nc(-c3ccccc3)nc3ccccc23)cc1
  3.5 | ?
#51 CCCC(=O)NCC1(N(C)C)CCCCC1
  -0.2 | -0.7%
#52 CN(C)c1ccc(CNC(=O)C2COc3ccccc3C2)cc1 (stereo not drawn)
  0.5 | 0.1%
#53 CCOc1ccc(NC(=O)C(CC)n2c(=O)c(-c3ccccc3NC(C)=O)nc3ccccc32)cc1 (stereo not drawn)
  2.1 | 9.6%
#54 Cc1ccc(CN(Cc2ccco2)C(=O)c2ccccc2Cl)o1
  6.0 | 0.4%
#55 CCOc1ccc(CCNC(=O)c2cc3c(=O)[nH]c4ccc(C)cc4c3s2)cc1OCC
  0.2 | 2.9%
#56 COc1ccc2cc(CNc3ccccc3)c(=O)n(CC(=O)Nc3ccc(C)cc3C)c2c1
  0.7 | 5.1%
#57 Cc1nc2ccccc2n1CC(O)COc1ccc(C(=O)O)cc1 (stereo not drawn)
  0.4 | 1.0%
#58 COc1cccc(CNC(=O)C2CCN(S(=O)(=O)c3c(C)noc3/C=C/c3cccs3)CC2)c1
  0.6 | 0.5%
#59 COc1ccc(-c2noc(CSc3nc4ccccc4[nH]3)n2)cc1
  -0.9 | 2.2%
#60 COc1ccc(OC)c(-c2csc(-c3c(N)c(C(=O)c4ccc(Cl)cc4)n4ccccc34)n2)c1
  3.6 | 1.6%

Whole records, quoted from the list.
COc1ccc(C(=O)Nc2noc3ccccc23)cc1 in the list: TRPML1 agonist: -0.5; PINK1 modulator: -0.1%
CCOc1ccc(-c2cc(C(=O)NC(C)c3ccccc3)c3ccccc3n2)cc1 (stereo not drawn) in the list: TRPML1 agonist: 5.8; PINK1 modulator: 1.1%

Next part:
Results follow in this order: TRPML1 agonist | PINK1 modulator
#61 Cc1ccccc1NC(=O)COc1ccccc1C(=O)Nc1ccccc1
  0.9 | 1.1%
#62 COc1cc(OC)c(NC(=O)Cn2cnc3sc(C)c(S(=O)(=O)N4CCN(C)CC4)c3c2=O)cc1Cl
  -0.3 | 3.0%
#63 CC(C)(C)OC(=O)N1CCC(c2c(C(=O)N3CCN(C4CCCCC4)CC3)cnn2-c2cccc(Cl)c2)CC1
  92* | -1.7%
#64 CNc1c(Br)cc(/C=C2\C=Cc3ccccc32)cc1Br
  0.2 | -0.2%
#65 CCn1cc(C(=O)N2CCN(c3ccccc3)CC2)c(=O)c2cc(S(=O)(=O)N(C)C3CCCCC3)ccc21
  -1.4 | 0.2%
#66 O=C(NCc1ccc(Cl)cc1)c1cc2cccc3c2n1CCS3
  2.9 | 1.1%
#67 CC1=C(C(N)=O)C(c2ccccc2F)n2nc(-c3ccc(Cl)cc3)nc2N1 (stereo not drawn)
  -0.5 | 1.7%
#68 COc1ccc(NC(=O)N2CCC(CN3CCCC3)CC2)c(OC)c1
  0.9 | 0.5%
#69 O=C(CCC1N=C2c3ccccc3N=C(SCc3cccc(Cl)c3)N2C1=O)NCc1cccs1 (stereo not drawn)
  0.5 | 1.7%
#70 O=C(Cc1ccc(F)cc1)NCc1nc2cccnc2n1Cc1ccc(F)cc1
  0.4 | 2.3%
#71 COc1ccc(OC)c(CCNC(=O)c2sc3nc4n(c(=O)c3c2C)CCCC4)c1
  -0.8 | 1.3%
#72 COc1cccc(-c2cc(C(=O)Nc3ccc(Br)c(C)c3)[nH]n2)c1
  0.7 | -1.1%
#73 Cc1cc(C)cc(NC(=O)CSc2oc(-c3cccs3)nc2S(=O)(=O)c2ccc(Br)cc2)c1
  -0.8 | 1.4%
#74 Cc1cc(C)cc(Nc2ncnc3onc(-c4ccc(F)cc4)c23)c1
  2.3 | 3.2%
#75 Cc1ccc(NC(=O)/C(C#N)=C/c2ccc(-c3ccc(Cl)c(C(=O)O)c3)o2)cc1C
  0.4 | 3.6%
#76 Cc1ccc(NC(=O)Nc2ccccc2OCc2cc(=O)n3ccccc3n2)c(Cl)c1
  -0.3 | -4.7%
#77 COc1ccc(-c2onc(C)c2C)cc1S(=O)(=O)NCC1CCN(Cc2cc(C)ccc2C)CC1
  0.9 | 5.9%
#78 O=C(Nc1ccc(F)c(Cl)c1)C1CCCN(c2ncnc3onc(-c4ccc(F)cc4)c23)C1 (stereo not drawn)
  1.9 | 4.3%
#79 COc1ccc(NC(=O)C(NS(=O)(=O)c2cccc3nsnc23)C(C)C)cc1OC (stereo not drawn)
  -0.6 | 1.5%
#80 Cc1cccc(C(=O)Nc2cccc(C(=O)OCc3cc(=O)n4nc(C(C)C)sc4n3)c2)c1
  3.4 | -1.2%
#81 COc1ccc(C(=O)NCc2ccc3c(c2)CCN3C(=O)c2cccc(C)c2)cc1OC
  2.0 | 0.0%
#82 Cc1ccc(NC(=O)CSc2nc(=O)n(CCN3CCOCC3)c3c2CCC3)cc1Cl
  -0.9 | -0.3%
#83 CC(=O)Nc1ccc(S(=O)(=O)NC2(C(F)(F)F)C(=O)Nc3c2c(=O)[nH]c(=O)n3-c2ccc(C)cc2)cc1 (stereo not drawn)
  0.6 | 0.8%
#84 CCc1nn2c(=O)cc(COC(=O)c3cccc(NC(=O)COc4ccccc4)c3)nc2s1
  1.4 | 0.2%
#85 COc1cc(C)ccc1OCCn1c(-c2ccc(Cl)cc2)nc2ccccc2c1=O
  -1.1 | 0.6%
#86 CN(C)S(=O)(=O)c1ccc2c(c1)N(CC(=O)Nc1cccc(C(F)(F)F)c1)C(=O)CS2
  -1.1 | 0.4%
#87 Cc1ccc(C)c(N2CCN(C(=O)C3CCCN(Cc4nc(-c5cccc(Cl)c5)oc4C)C3)CC2)c1 (stereo not drawn)
  -0.7 | 1.7%
#88 Cc1cccc(CN2CCC(CNC(=O)c3c(C)oc4ncnc(N5CCCCC5)c34)CC2)c1
  -0.4 | 0.0%
#89 Cc1ccc(-c2nnn3c2nc(NC2CCC(C)CC2)c2ccccc23)cc1 (stereo not drawn)
  -0.2 | 1.7%
#90 Cc1ccc(NC(=O)CSc2nc3c(c(=O)[nH]2)CCC3)cc1Cl
  3.0 | 3.9%
#91 COc1ccc(S(=O)(=O)N(CC(=O)N2CCC(C)CC2)c2ccc(C)cc2)cc1
  0.6 | -1.2%

Sorted by number of heavy atoms (ascending): some entries from above.
Results follow in this order: TRPML1 agonist | PINK1 modulator
#66 O=C(NCc1ccc(Cl)cc1)c1cc2cccc3c2n1CCS3
  2.9 | 1.1%
#74 Cc1cc(C)cc(Nc2ncnc3onc(-c4ccc(F)cc4)c23)c1
  2.3 | 3.2%
#70 O=C(Cc1ccc(F)cc1)NCc1nc2cccnc2n1Cc1ccc(F)cc1
  0.4 | 2.3%
#63 CC(C)(C)OC(=O)N1CCC(c2c(C(=O)N3CCN(C4CCCCC4)CC3)cnn2-c2cccc(Cl)c2)CC1
  92* | -1.7%
